Mtb hypoxia rep – PubChem AID 1159583. M. tuberculosis hypoxia-regulated fluorescent reporter, fluorescence. fluorescence inhibition, % (concentration not given with the values). 300,000 compounds, 0.1% hits;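 active means 35 to 45% if threefold the growth effect, above 45% if 1.5-fold the growth effect; inactive means the rest, general growth blockers included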;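 further: wells of about 50 µL received 100 nL stock; 0% = vehicle wells and 100% = reference inhibitor wells; whole bacteria with a GFP reporter of the hypoxia response; strong numbers were not always called active; many hits fall short of the cut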
ugtP null kill – growth inhibition of ugtP-null S. aureus, primary screen, RN4220 ugtP deletion, OD600; 16 h; some inactives read as strong as hits; growth inhibition, % (no concentration beside the values); 330,000 compounds, 0.54% hits; AID 1259309, 2017;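 active means z-score under -3 and OD600 up to 0.15 on both plates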;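 further: plate controls were untreated wells for no effect and antibiotic for full effect; wells of about 80 µL received 100 nL stock; the first replicate is given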
Autofluor counter – compound fluorescence in toxin protease inhibitor counterscreen; compound autofluorescence counterscreen, microsphere flow cytometry; hits give high values; fluorescence intensity (test concentration not listed); 360,000 compounds, 3.1% hits; AID 624483;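 active means at least 3 SD above the mean of all compounds, about 16000 in these data; inconclusive means too few beads counted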;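 further: 100 nL of 1 mM stock went into each well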
PrP UTR inh – inhibition of PrP 5' UTR reporter expression; cell-based PrP 5' UTR mRNA reporter, plate reader; inhibition, % (concentration not given with the values); 340,000 compounds, 0.35% hits; AID 488862, 2010;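 active means every replicate at 50% or more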;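 further: 0 = median of the neutral control wells; tested in H4 reporter cells; numbers are from one replicate; inactives centre near -14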
Sa RN4220 lethal – growth inhibition of S. aureus RN4220, primary screen, OD600. 16 h. inhibition, % (no concentration beside the values). 330,000 compounds, 0.33% hits. AID 1259311, 2017;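 active means z-score of -3 or lower and OD600 up to 0.18 on both plates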;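 further: plate controls were untreated cells for no effect and reference antibiotic for full effect; stock transfer was 100 nL into about 80 µL; one replicate is shown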
BJeLR lethal – MLPCN primary cell-based screen for lethality selective to Ras in HRASV12 cells. BJeLR (HRASV12) viability, CellTiter-Glo ATP luminescence, 48 h; reference of the scale not given here. inhibition, % (no concentration beside the values). 300,000 compounds, 0.17% hits;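 active means replicate mean above 50%; inconclusive means above 50% but judged a plate artefact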;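 further: 50 nL library stock added to about 25 µL; numbers are from one replicate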
Mtb hypoxia rep growth – recorded beside Mtb hypoxia rep, whose call it bears; growth inhibition, %; measured here: M. tuberculosis growth (absorbance);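 0% = vehicle and 100% = reference antibiotic; read after six days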
The depositor's hits bear a star; u = inconclusive; x = no result given. Random draw from the library; any-hit rate near 4%.

The line under a structure holds: ugtP null kill	Mtb hypoxia rep	Autofluor counter	Mtb hypoxia rep growth	BJeLR lethal	PrP UTR inh	Sa RN4220 lethal
- O=C(Nc1ccc(S(=O)(=O)N2CCOCC2)cc1)c1ccc2c(c1)S(=O)(=O)c1ccccc1C2=O
 : -1	3	4352	-9	3	2	-3.8
- COc1ccc(OC)c(-n2c(-c3cnccn3)n[nH]c2=S)c1
 : -1	-8	11041	8	1	-10	1.3
- CC(C)(C)C1CCC(C(=O)OCC(=O)c2ccc[nH]2)CC1 (centres undefined)
 : 11	1	2431	3	-16	-25	10
- COc1ccc(C=NNc2cc(C)nc(N3CCOCC3)n2)cc1
 : 0	2	x	19	x	x	-0.2
- CCOc1ncccc1C(=O)OCCN1C(=O)c2ccccc2C1=O
 : -2	x	3434	x	4	-3	4.5
- CC(=O)Nc1ccc(N/C=C(\C#N)S(=O)(=O)c2ccc(Cl)cc2)cc1
 : 8	2	3456	2	11	-24	-2.2
- CCCNC(=O)C1CC(=O)N(c2ccc(OCc3ccc(F)cc3)cc2)C1 (centres undefined)
 : 9	18	4019	6	4	-39	4.1
- Cc1ccc(CNC(=O)C(NS(=O)(=O)c2cccc3nsnc23)c2ccccc2)cc1 (centres undefined)
 : -12	9	9925	7	1	-36	4.8
- Cc1ccc2c(c1)nc(-n1nc(C)cc1C)c1nnnn12
 : 4	7	2944	-6	-8	-36	1.9
- CCSc1nnc(NC(=O)[C@H](C)NC(=O)c2ccccc2Cl)s1
 : 2	-11	4025	9	-13	-88	0.0
- Cn1c(=O)c2c(nc(SCc3nn[nH]n3)n2Cc2ccccc2F)n(C)c1=O
 : 20	x	4108	x	2	-17	11
- CC(C)(C)c1ccc(C(=O)NN=C2CCCC2)cc1
 : 7	8	3246	10	-6	-14	2.0
- CCNC(=O)c1cc2c(=O)n3cccc(C)c3nc2n(CCc2ccccc2)c1=N
 : -4	x	2617	x	3	-10	-7.5
- O=C(NN=Cc1ccco1)/C(=C/c1cccc([N+](=O)[O-])c1)NC(=O)c1ccccc1
 : 0	-6	x	0	x	x	1.3
- C[C@H](NC(=O)OCc1ccccc1)c1nnc([C@H](C)NC(=O)OCc2ccccc2)o1
 : x	x	3517	x	0	-36	x
- Cc1cccc(/C(N)=N/OC(=O)c2cccs2)c1
 : -2	4	3676	4	-3	-113	6.0
- O=C(O)Cc1sc(Nc2cccc3ccccc23)nc1-c1ccccc1
 : -15	9	5719	14	x	x	12
- O=C(NCc1cccc2ccccc12)c1cccs1
 : -9	18	3841	9	x	-28	9.9
- Cc1ccc(NC(=O)Cn2nnc3ccccc3c2=O)cc1C
 : 1	0	4387	-3	-12	50	1.2
- COC(=O)c1ccc(NC(=O)N(c2ccccc2)c2ccccc2)cc1
 : 8	3	5374	-5	2	-20	5.2
- O=C(Nc1ccc(S(=O)(=O)Nc2nccs2)cc1)C(F)(F)F
 : 39	x	5099	x	1	-6	2.0
- Clc1ccc(C=NN2CCN(Cc3ccccc3Cl)CC2)cc1
 : 41	-4	x	10	x	x	14
- CC(=O)N1CCCN(Cc2cn(-c3ccc(C)cc3)nc2-c2cccc(C)c2)CC1
 : 9	0	4539	9	-2	-24	1.0
- COc1ccsc1C(=O)Nc1ccc(F)cc1F
 : 7	-3	4626	4	0	-12	3.0
- Cc1ccccc1N(CC(=O)NC1CCCCC1)C(=O)CNC(=O)c1cccs1
 : 6	0	3760	7	1	-25	3.8
- COc1ccc(-c2ccc(C)cc2)cc1C1C2C=CCC[C@@]2(C)C(=O)N1Cc1ccccc1 (some centres undefined)
 : 3	5	x	1	x	x	-5.0
- CN1CCN(Cc2nc3c(c(=O)n(C)c(=O)n3C)n2Cc2cccc3ccccc23)CC1
 : 5	9	9205	13	-4	-12	4.5
- O=C1CCCC/C1=C/NCc1ccccc1
 : x	x	2229	x	-2	-1	x
- CCN1CCN(C(=O)COc2ccc(S(=O)(=O)N3CCOCC3)cc2C)CC1
 : 5	2	3726	11	14	-13	5.0
- COC(=O)c1ccc(OC)c(CSc2nnc(COc3ccccc3)o2)c1
 : 1	1	9104	-3	-3	-17	3.0
- S=c1[nH]nc(-c2ccco2)n1-c1ccccc1Cl
 : 16	19	4097	15	1	-21	5.8
- Cc1c(N/C(=N/S(=O)(=O)c2ccc(Cl)cc2)c2ccccc2)c(=O)n(-c2ccccc2)n1C
 : 0	-1	x	11	-5	x	2.2
- Cc1cccc(N=Cc2ccccn2)n1
 : 2	2	x	7	x	x	1.0
- CCCCOc1ccc(OC(=O)c2cccnc2)cc1
 : 4	4	3912	7	5	-13	9.6
- O=C(NCc1ccc(F)cc1)C(Cc1ccccc1)NS(=O)(=O)c1cccs1 (centres undefined)
 : 8	11	7500	7	1	-2	-0.7
- COc1cccc2c(=O)n(CC(=O)Nc3cccc(F)c3)ccc12
 : 2	1	5215	-1	-1	-16	0.8
- CCOC(=O)C1=C(O)/C(=C/c2ccc(-c3ccccc3C(=O)O)o2)SC1=Nc1ccc(OC)cc1
 : -10	x	2260	x	x	-9	8.0
- CCN1CCc2nc(SCC(=O)Nc3ccc(OC)cc3)c(C#N)cc2C1
 : -1	6	3601	10	4	-12	2.3
- CCN(Cc1nc2ccccc2n1C)c1ccccc1
 : 5	2	3551	3	11	-14	1.9
- COc1ccc(Cn2c(O)c(/C=C3/C=CC=N3)c(=O)[nH]c2=O)cc1
 : 1	10	4786	11	21	-35	6.3

Not a retest: 3 of the compounds above.
The line under a structure holds: ugtP null kill	Mtb hypoxia rep	Autofluor counter	Mtb hypoxia rep growth	BJeLR lethal	PrP UTR inh	Sa RN4220 lethal
- O=C(Nc1ccc(S(=O)(=O)Nc2nccs2)cc1)C(F)(F)F
 : 39	x	5099	x	1	-6	2.0
- Clc1ccc(C=NN2CCN(Cc3ccccc3Cl)CC2)cc1
 : 41	-4	x	10	x	x	14
- CC(=O)N1CCCN(Cc2cn(-c3ccc(C)cc3)nc2-c2cccc(C)c2)CC1
 : 9	0	4539	9	-2	-24	1.0

The list goes on.
The line under a structure holds: ugtP null kill	Mtb hypoxia rep	Autofluor counter	Mtb hypoxia rep growth	BJeLR lethal	PrP UTR inh	Sa RN4220 lethal
- O=C(O)[C@H]1CCCC[C@H]1C(=O)Nc1ccc(Nc2ccccc2)cc1
 : 5	8	3795	14	-4	2	0.5
- COc1ccc(Cc2noc(-c3ccc(OC)c(OC)c3)n2)cc1OC
 : -1	5	9359	0	11	-10	-1.3
- O=C(CC1C(=O)NCCN1Cc1cccc(F)c1)NCCCOc1cccnc1 (centres undefined)
 : 5	7	4744	5	3	5	1.6
- Cc1nc2sccn2c(=O)c1S(=O)(=O)Nc1ccc(N2CCN(C)CC2)cc1
 : 7	2	5868	1	3	-6	5.2
- O=C(O)c1cccc(NC(=O)c2ccccc2)c1
 : 1	5	5064	-3	x	-17	3.9
- CCOC(=O)C(CC(=O)Nc1nc(C(C)=O)c(C)s1)C(C)c1ccccc1 (centres undefined)
 : 1	-3	4007	-3	-1	-18	1.3
- O=C(O)c1ccccc1SCc1csc(-c2ccccc2)n1
 : 1	8	5917	12	4	-19	1.2
- Cc1cccc(-n2ccc(=O)c(C(=O)O)n2)c1
 : 15	0	3001	-1	8	-3	1.1
- O=C(NCC(=O)N1CCCC(C(F)(F)F)C1)c1ccco1 (centres undefined)
 : 5	1	3967	-2	x	-8	-0.6
- OC(c1ccccc1)(c1ccccc1)C1CCCN1 (centres undefined)
 : 4	0	10965	3	-3	-18	1.2
- O=C(NC(Cc1ccccc1)c1nc2ccccc2[nH]1)c1ccc(Cl)c([N+](=O)[O-])c1 (centres undefined)
 : -12	7	2267	-2	4	-20	-2.6
- CCCn1c(SCC(=O)NCC(=O)Nc2ccc(F)c(F)c2F)nc2ccccc2c1=O
 : 8	5	6476	1	x	-13	6.2
- CCCn1cc(S(=O)(=O)c2ccc(OC)cc2)c(=O)c2cc(OC)ccc21
 : 11	2	6351	0	9	-4	5.6
- CCC1CN(C(=O)N2CCC(C(=O)NCc3ccco3)CC2)c2cc(C)ccc2O1 (centres undefined)
 : 5	14	6122	5	7	7	1.3
- CCC(C)C(NC=C1C(=O)OC(C)(C)OC1=O)C(=O)O (centres undefined)
 : 13	10	8059	8	2	-2	5.3
- Cc1ccc(C)c(N2N=C(C(=O)OCc3nnc(-c4ccccc4)o3)CCC2=O)c1
 : 2	2	5343	1	12	-11	1.2
- Cc1cc(C)c(OCCCCN(C)C)c(Br)c1
 : 10	-8	4508	-10	3	10	13
- COc1ccc(CCOC(=O)c2cccc(NC(C)=O)c2)cc1
 : -6	-2	5417	-2	11	-24	0.3
- CCCCn1c(O)c(C(CC)=NCc2ccc(F)cc2)c(=O)[nH]c1=O
 : -4	-5	u	2	8	-12	0.3
- COc1ccc(Cc2nnc(NS(=O)(=O)Cc3ccccc3)s2)cc1
 : 5	x	3417	x	-1	-11	4.1
- NC(=O)c1c(NC(=O)CCCn2cnc([N+](=O)[O-])n2)sc2c1CCCC2
 : 11	-6	4954	8	17	-6	-0.6
- O=[N+]([O-])c1ccc(N2CCN(c3ccccc3)CC2)cc1
 : -1	-3	3577	8	2	-37	3.2
- C=CCn1c(SCC(=O)NC2CC2)nnc1-c1cccs1
 : 2	1	5315	4	8	-23	0.6
- O=C(Nc1ccccc1)c1nc[nH]c1C(=O)NCCNC(=O)c1[nH]cnc1C(=O)Nc1ccccc1
 : 14	0	3776	-3	x	-25	8.5
- O=C(CSc1nnc(COc2ccccc2Cl)o1)Nc1ccccc1
 : 1	8	5130	10	x	-1	5.4
- Cc1ccc(S(=O)(=O)N2CCN(C(=O)CCn3nc(C)c(C)c3C)CC2)cc1
 : 3	-6	4278	-3	-2	-17	3.2
- Cc1ccc(O)c(CCc2ccc(O)cc2)n1
 : 13	8	3934	5	-1	-38	4.8
- CC(=O)c1ccc(NC(=O)COC(=O)CC2CC3CCC2C3)cc1 (centres undefined)
 : -3	-1	6321	9	x	-16	2.2
- CN(C)S(=O)(=O)c1ccc(Cl)c(C(=O)NC2CCN(Cc3ccccc3)C2)c1 (centres undefined)
 : 5	12	3375	8	-4	-13	1.3
- Cc1c(NC(=O)c2cc(-c3ccc4c(c3)OCO4)on2)c(=O)n(-c2ccccc2)n1C
 : 4	1	9741	7	-4	-31	2.3
- Nc1nc(C(F)(F)F)cc(=O)[nH]1
 : 12	7	3949	-4	-15	-14	1.2
- CC(C)CCn1c(O)c(N=Nc2ccccn2)c2ccccc21
 : 3	8	10943	-9	9	-20	-0.4
- COc1ccc2c(c1)OC(c1cccc(C(F)(F)F)c1)C(OC(=O)NCCc1ccc(OC)c(OC)c1)C2=O (centres undefined)
 : 3	4	x	-4	x	x	1.8
- COCC(=O)N(C)C1(c2nnnn2CCOC(=O)Nc2cccc3ccccc23)CCCC1
 : -2	13	3505	4	0	-24	-10
- C/C(=N\NC(=O)OC(C)(C)C)c1ccccc1Br
 : x	x	4074	x	8	-9	x
- O=S(=O)(c1ccccc1)N1CN2CCN(C2)C1
 : -4	6	2962	7	2	-3	4.0
- COc1ccc(CNC(=O)CCSCc2ccccc2C)cc1
 : 3	0	3815	12	12	-8	-2.0
- Cc1ccc(-c2nn(-c3ccccc3)cc2C2CC(c3cccs3)=NN2C(=O)CCCC(=O)O)cc1 (centres undefined)
 : -3	-8	6029	1	2	-7	-3.1
- COc1ccc(N2CCN(C(=O)CN(C)S(=O)(=O)c3ccc4c(c3)c(=O)n(C)c(=O)n4C)CC2)cc1
 : 10	-1	4402	4	-11	-18	0.0
- Cc1ccc(S(=O)(=O)N2CCCCC2c2cccnc2)c(C)c1C (centres undefined)
 : 2	-5	x	10	5	-9	3.3
- COc1ccc(Nc2cc(C)c3ccccc3n2)cc1
 : -18	-27	4958	12	4	-81	-6.7
- CCC1CCCC1=NNC(=O)CCC(=O)Nc1ccccc1Cl (centres undefined)
 : 2	19	x	5	x	x	2.3
- CCOC(=O)C1=C(COC(=O)CNS(=O)(=O)c2ccc(C)cc2)NC(=O)NC1C (centres undefined)
 : 0	-5	6334	4	5	-4	4.5
- CC(C)NC(=O)Cn1c(SCC(=O)N2CCCCCC2)nc2ccccc21
 : 6	7	11548	2	-13	-16	4.4
- COc1ccc(C=NNc2ccc([N+](=O)[O-])cn2)cc1
 : -4	1	3819	16	x	-78	-0.8

Assay outcomes as filed in PubChem.
